Screening data from PubChem.
ClpP mod: qHTS Assay for Activators of ClpP; ATP-dependent Clp protease proteolytic subunit (Bacillus subtilis (strain 168)), P80244; purified B. subtilis ClpP, FRET peptide cleavage, 20 min; Potency, µM (highest dose often 57.5 µM), for the others: at the highest dose activity change, negative = active; 1.9% of 340,000 active; AID 651965, 2013; active = well fitted falling curve with a large enough effect; inconclusive = small, poorly fitted or top-dose-only effect; inactive = no such curve, though single readings can be large or run the other way; also: potency is read from the fitted curve at half-maximal effect; the source files actives as falling curves though it sought activators and does not explain the sign; nearly all actives have a fitted effect of over 65% in size; many hits overshoot -100%
Target sequence (P80244 whole entry, looked up): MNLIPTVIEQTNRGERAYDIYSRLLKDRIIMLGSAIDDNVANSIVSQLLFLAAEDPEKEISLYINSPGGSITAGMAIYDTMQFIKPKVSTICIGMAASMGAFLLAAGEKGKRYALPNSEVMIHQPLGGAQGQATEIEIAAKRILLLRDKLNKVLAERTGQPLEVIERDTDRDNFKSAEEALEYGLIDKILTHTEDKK
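FRET quenching reversal measured ClpP activation: 10 microg/mL B. subtilis ClpP at pH 8 with the FRET-FV decapeptide, read at 430 nm after 320 nm excitation. The 20-min minus 0-min signal was scaled between DMSO/no-enzyme wells and ADEP (5.8 microM final).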
gsp agonist: activates gsp, the McCune-Albright syndrome mutation. gsp mutant cells, cAMP HTRF, 30 min; control for the full effect not named in the record. Potency, µM (series often up to 76.9 µM), inactives show at the highest dose activation (cAMP increase), usual class: activators. 0.13% of 340,000 active. AID 624287; active = well fitted activation curve with a large enough effect; inconclusive = small, poorly fitted or top-dose-only effect, or another doubt; inactive = no such curve, though single readings can be large or run the other way; cell line not stated here;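 also: phosphodiesterase inhibitor Ro 20-1724 added with compounds to block cAMP breakdown; potency is read from the fitted curve at half-maximal effect; nearly all actives have a fitted effect of over 60% in size; about a fifth of the inactives were tested at one dose only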
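Cells in DMEM/10% FBS with G418 were pretreated with compounds in DMSO plus […] (300 uM stock) for 30 min at 37C. cAMP was measured by HTRF (cAMP-d2 plus anti-cAMP antibody-K) after 30 min at room temperature.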
gsp antagonist: antagonists of gsp mutant (McCune-Albright syndrome). Potency, µM (titrated, usually from 76.9 µM), inactives show top-dose activity change, negative = inhibition, actives largely listed as inhibitors. 0.4% of 340,000 active. gsp-mutant cells, cAMP HTRF, 30 min; control for the full effect not named in the record. AID 624288; active = falling curve of any shape with a large fitted effect; inconclusive = falling curve, mostly with a smaller effect; inactive = flat or rising curve; cell line not stated here;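 also: intracellular cAMP measured with PDE inhibitor Ro 20-1724 present during compound exposure; potency is read from the fitted curve at half-maximal effect; % is scaled to controls: 0 for no effect and ±100 for the full control effect; nearly all actives have a fitted effect of over 65% in size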
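Measurement of cellular cAMP by homogeneous time-resolved fluorescence following a 30 min compound exposure at 37C. The PDE inhibitor […] was present throughout; the assay buffer was DPBS with 0.05% BSA and 0.005% Tween 20.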
Menin MLL FP FL: inhibitors of human menin-MLL interaction, wild-type MLL peptide. AID 1766. FP activity change, % at 61.4 µM. Fluorescence polarization, fluorescein-MLL peptide displacement from menin. 290,000 tested, under 10 active; inconclusive = falling polarisation curve, or a change in total fluorescence; inactive = total fluorescence flat and polarisation flat or rising; no compound was filed as active; the % refers to the polarisation; negative = inhibition;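 also: % of control where 0% means no effect; inhibitors lower the polarisation; unlabelled MLL peptide was the positive control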
TRPML1 inh: blocks the human TRPML1 channel; TRPML1-inducible cells, Ca2+ dye fluorescence, FDSS; hits give low values; inhibition of EC80 agonist-evoked calcium signal; 0.02% of 390,000 active; activity change, negative = inhibition, % (concentration not given with the values); in the data active means activity change below about -50%; inconclusive means about -30% to -50%; inactive means above about -30%;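 also: stimulus is agonist 54-4 at its EC80 concentration; % is scaled to controls: 0 for no effect and ±100 for the full control effect; compound concentration not given in the record; the text of the record puts the active cut at -80%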
Target sequence (Q9GZU1 whole entry, looked up): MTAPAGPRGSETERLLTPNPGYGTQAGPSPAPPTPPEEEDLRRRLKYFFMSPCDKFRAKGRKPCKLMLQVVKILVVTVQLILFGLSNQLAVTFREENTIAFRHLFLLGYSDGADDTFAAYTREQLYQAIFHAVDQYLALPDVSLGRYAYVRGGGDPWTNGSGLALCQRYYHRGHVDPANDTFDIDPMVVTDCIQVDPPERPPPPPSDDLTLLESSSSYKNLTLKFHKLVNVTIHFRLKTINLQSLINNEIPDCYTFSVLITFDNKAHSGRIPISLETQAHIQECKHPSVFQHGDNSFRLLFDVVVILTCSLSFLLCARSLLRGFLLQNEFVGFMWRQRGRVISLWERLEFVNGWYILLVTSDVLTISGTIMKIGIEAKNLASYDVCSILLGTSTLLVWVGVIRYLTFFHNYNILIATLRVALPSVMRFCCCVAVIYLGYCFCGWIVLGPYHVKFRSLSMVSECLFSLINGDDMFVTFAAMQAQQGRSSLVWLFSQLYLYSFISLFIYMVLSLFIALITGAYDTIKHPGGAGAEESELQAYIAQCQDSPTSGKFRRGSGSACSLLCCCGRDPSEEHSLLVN
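TRPML1-DL cells, Tet-induced overnight (~16 h, 37 °C) at 1,500 cells/well, were loaded with Ca8 no-wash dye plus quencher for 45-90 min at room temperature. Compounds were pinned during FDSS kinetic reading; agonist 54-4 at EC80 (4 uM final) then added.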
TRPML1 agonist: agonists of human TRPML1 channel. activation, % (no concentration beside the values). Q9GZU1. AID 624414. 0.12% of 410,000 active. TRPML1-expressing cells, Ca2+ dye fluorescence, FDSS; host cell line not named in the record; reference of the full effect not given here; in the data active = activation above about 50%; inconclusive = about 30% to 50%; inactive = below about 30%; also: 0% is about no effect; the text of the record puts the active cut at 80%
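Kinetic FDSS Ca2+ read in Tet-induced TRPML1-DL cells (ABD Ca8 dye plus quencher, 45-90 min RT loading): baseline, then compound, then 110 s agonist window; EC80 agonist 54-4 at 4uM final added afterwards for a 110 s antagonist window.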
The depositor's hits bear a star; ? = inconclusive; nt = not tested or not shown; & = joins results of further samples; [ ] = remark or other dose.

Results follow in this order: ClpP mod	gsp agonist	gsp antagonist	Menin MLL FP FL	TRPML1 inh	TRPML1 agonist
> COc1cccc(C2/C(=C(\O)c3ccc4c(c3)OCCO4)C(=O)C(=O)N2CC2CCCO2)c1 (centres undefined)
  1.7%	18%[15.4 µM]	17%	nt	8	-0.6
> O=c1cc(CSc2nc(NCc3ccccc3)c3ccccc3n2)nc2ccc(Cl)cn12
  -3.7%	?	1%	8.2	-19	-0.8
> CCOC(=O)c1c(N)n(-c2cccc(OC)c2)c2nc3ccccc3nc12
  4.2%	nt	nt	nt	-6	0.5
> O=C(COc1ccccc1)Nc1ccccc1N1CCN(c2ccc(F)cc2)CC1
  -8.3%	-17%	?	1.1	36	0.0
> O=C(Nc1ccccc1C(=O)NCC1CCCO1)c1ccccc1 (centres undefined)
  -2.0%	0%	-3%	-1.1	12	-0.3
> CSc1cnc2c(=O)n(C)c(=O)[nH]c2n1
  16µM*	10%	3%	5.8	5	0.6
> Cc1ccc(NC(=O)CN2C(=O)NC3(CCc4ccccc43)C2=O)cc1S(=O)(=O)N1CCCCC1 (centres undefined)
  -1.2%	-3%	-11%	nt	-15	-0.7
> Cc1cc(C)c2[nH]c(=O)c(CN(Cc3nnnn3C3CCCC3)C3CCCCC3)cc2c1
  0.0%	-19%	7%	1.4	3	0.3
> CC(CS(=O)(=O)c1ccc2c(c1)NC(=O)CS2)C(=O)N1CCN(c2cccc(Cl)c2)CC1 (centres undefined)
  -0.5%	13%	?	31[activator]	4	-0.6
> CCOCC(=O)N1CCN(c2ccccc2OC)CC1
  nt	6%[15.4 µM]	9%	-2.3	-3	0.1
> Cc1ccc2[nH]cc(S(=O)(=O)c3ccc(C(C)C)cc3)c(=O)c2c1
  2.3%	-14%[15.4 µM]	-6%	1.0	10	1.5
> CN1CCN(C(=O)c2ccc3c(=O)n(CCc4ccccc4)c(=S)[nH]c3c2)CC1
  -0.7%	-12%	25%	nt	19	-0.9
> Oc1ccc(-c2nc3ccccn3c2NCc2ccc3c(c2)OCO3)cc1
  ?	?	-13%	-0.2	18	0.4
> O=C(COC(=O)c1cccc(Br)c1)NCCNC(=O)COC(=O)c1cccc(Br)c1
  4.1%	-19%	19%	nt	-11	-0.2
> CCn1c(COc2ccccc2C)nnc1SCC(=O)N1CCC(C)CC1
  -2.0%	?	?	0.8	8	1.7
> C[C@H](CO)NC(=O)[C@@H]1C[C@H]1[C@@H](NP(=O)(c1ccccc1)c1ccccc1)c1ccccc1
  1.2%	?	5%	4.2&-0.8	18	-0.2
> Cc1noc(C)c1C(=O)NCc1cccs1
  4.5%	-59%[inhibitor]	17%	2.7	6	-0.1
> Cc1cc(NS(=O)(=O)c2ccc(NC(=O)Cc3ccc(Cl)c(Cl)c3)cc2)no1
  nt	0%[15.4 µM]	-8%	nt	13	0.2
> COc1cc2cc(CN(Cc3cccs3)C(=S)Nc3ccc(C)cc3)c(=O)[nH]c2cc1OC
  ?	-40%[inhibitor]	-5%	-2.2	-3	-0.4
> Cc1ccc(Nc2c3c(nc4ncnn24)CCC3)cc1
  1.4%	-19%	9%	3.1	-2	-0.9
> CC(=O)N1CCN(c2ccc(NC(=O)c3cccc(OCc4ccccc4)c3)cc2)CC1
  3.9%	26%	-4%[15.4 µM]	5.8	2	0.6
> O=C(Nc1ccc(S(=O)(=O)Nc2ncccn2)cc1)C1COc2ccccc2O1 (centres undefined)
  nt	?	-9%	-1.1	1	0.9
> Cc1ccc2[nH]c3nc(SCCN4CCOCC4)nnc3c2c1
  -0.1%	-32%[inhibitor]	-3%	-0.1	-5	-0.7
> CC1CCCC(C)N1C(=O)COC(=O)CSc1ccc([N+](=O)[O-])cc1 (centres undefined)
  0.7%	-6%	5%	nt	3	-0.3
> O=C(c1ccccc1Sc1cccc2ccccc12)N1CCOCC1
  -0.2%	-10%	-19%	-1.7	-10	-0.4
> Cn1c(=O)cc(OCCCC(=O)NCc2cccnc2)c2ccccc21
  nt	11%[15.4 µM]	10%	-1.5	1	-0.4
> COc1cccc(CCNS(=O)(=O)CCNC(=O)c2cccc(OC)c2)c1
  6.1%	0%	9%	nt	-11	0.8
> CCOc1cccc(/C=C/c2cc(C(=O)O)c3ccccc3n2)c1OC
  -20%	?	-10%	3.8	33	1.0
> O=C(O)CCC(=O)Nc1cccc(C(=O)Nc2ccc(Br)cc2)c1
  nt	-13%[15.4 µM]	10%	0.2	5	2.0
> O=C(NCCCN1CCCCC1)C1CC(=O)N(CCc2ccccc2)C1 (centres undefined)
  -2.3%	4%	8%	0.9	-6	-0.2
> O=C(NC(=S)Nc1ccc(N2CCN(C(=O)c3ccccc3)CC2)cc1)c1cccs1
  nt	22%[15.4 µM]	-86%	-13	-18	-0.7
> Cc1ccc(-c2cn3cc(C)ccc3n2)cc1
  0.4%	3%[15.4 µM]	6%	0.2	2	1.1
> CCc1ccc(C(=O)CC2(O)C(=O)N(CCc3ccccc3)c3ccc(Cl)cc32)cc1 (centres undefined)
  -2.7%	nt	nt	nt	20	5.0
> N/C(=N\c1nc2c(c(=O)[nH]1)CCCC2)Nc1ccccc1Sc1ccccc1
  ?	21%	1%	-2.7	2	2.1
> COc1ccc(S(=O)(=O)NN(C)C(=O)c2nn(-c3ccccc3)ccc2=O)cc1
  nt	-2%[15.4 µM]	3%	-4.2	-6	0.3
> CN(c1ccccc1)S(=O)(=O)c1cccc(C(=O)NC2CC(C)(C)NC(C)(C)C2)c1
  1.6%	-37%[inhibitor]	11%	nt	5	-1.1
> O=C(CSc1n[nH]c(-c2ccccc2Cl)n1)N1CCN(c2ccc(F)cc2)CC1
  -0.2%	nt	nt	nt	-7	0.0
> CC1CCCCN1CCNC(=O)c1cnn2ccccc12 (centres undefined)
  5.0%	-28%	9%	-1.6	-3	-0.4
> CC(C)CC(=O)Nc1ccc(C(=O)COC(=O)C2CC(=O)N(Cc3ccccc3)C2)cc1 (centres undefined)
  0.9%	?	5%	nt	21	1.2
> N#Cc1ccc(N2CCOCC2)c([N+](=O)[O-])c1
  nt	-6%[15.4 µM]	0%	3.5	14	-0.3
> O=C(Cn1ncc2c3ccccc3n(Cc3cccc(Cl)c3)c2c1=O)N1CCCCCC1
  ?	nt	nt	nt	-1	-0.2
> C[C@@H](C(=O)NCc1ccco1)N1C(=O)N2CCc3c([nH]c4ccccc34)[C@@]2(C)C1=O
  -6.6%	nt	-9%	0.7	nt	nt
> CCOc1ccc(/C=C2/SC(=S)N(C(C(=O)O)c3ccccc3)C2=O)cc1OCC (centres undefined)
  nt	0%[15.4 µM]	6%	?	-6	0.4
> CN(C)S(=O)(=O)N1CCC(n2c(C(F)(F)F)nc3cccnc32)CC1
  -0.2%	nt	nt	nt	-12	-0.8
> O=C(CCSc1nccn1Cc1ccccc1)N1CCOCC1
  1.0%	-8%	2%	-0.6	-1	0.0
> COC(=O)CN(C)C(=O)c1ccc(OC2CCN(S(=O)(=O)N(C)C)CC2)cc1
  0.4%	3%[15.4 µM]	-6%	-6.0	29	0.7
> CC(C)NS(=O)(=O)c1ccc(CCC(=O)O)cc1
  0.1%	-10%	-8%	-0.2	-14	-1.0
> C[C@@H]1CN([C@H](C)CO)C(=O)c2c(c3ccccc3n2C)-c2ccccc2CO[C@H]1CN(C)Cc1ccc(C(F)(F)F)cc1
  -8.7%	-36%[inhibitor]	nt	nt	46	1.0
> COC(=O)C1=CN(Cc2ccc(OC)c(OC)c2)C=C(C(=O)OC)C1c1cccc(O)c1
  4.5%	17%	5%	0.2	35	3.9
> CCOCCNC(=O)c1ccc2c3c(cccc13)CC2
  48%	-1%	4%	1.0	1	-0.5
> CN(C)c1ccc(C=C2C=Cc3ccccc32)cc1
  -2.8%	-5%	2%	nt	-8	1.5
> O=C(NCCCNC(=O)c1ccc(Cl)cc1Cl)c1cnccn1
  nt	39%	9%	nt	-3	-0.2
> O=C(O)c1ccc(NCc2cccs2)cc1
  -0.8%	-16%[15.4 µM]	?	5.3	18	-1.5
> Clc1cccc(Cc2c(-c3ccco3)nc3ccc(Cl)cn23)c1
  -16%	nt	nt	nt	7	-0.6
> COc1cc(C(=O)Oc2cccnc2)cc(OC)c1OC
  -6.7%	-21%	?	-1.4	nt	nt
> COC(=O)c1c(C)nc2c(c(SC)nn2-c2ccccc2)c1N
  ?	-14%	19%	0.6	39	-0.5
> CC(Sc1nnc(C2CC2)n1C1CC1)C(=O)N(C)Cc1cccc(F)c1 (centres undefined)
  -1.1%	19%	3%	nt	-9	-0.4
> CCN(CC)S(=O)(=O)c1ccc(O)c(C(=O)OCC(=O)N2CCCc3ccccc32)c1
  3.7%	?	nt	nt	-2	-0.7
> CN1CCN(c2ccccc2NC(=O)c2ccc(OCc3ccccc3)cc2)CC1
  -1.1%	3%	11%	0.8	-12	-0.2
> COc1cccc(CC2(CO)CCCN(Cc3ccc(OC(F)F)cc3)C2)c1 (centres undefined)
  -0.3%	-46%[inhibitor]	1%	nt	27	2.5

The results go on:
Results follow in this order: ClpP mod	gsp agonist	gsp antagonist	Menin MLL FP FL	TRPML1 inh	TRPML1 agonist
> COc1ccc(CNc2ccc(C)c(C)c2)c(OC)c1OC
  0.7%	19%	-8%	4.1	-14	2.1
> Cn1cnc2cc(NCc3ccccc3O)ccc21
  4.3%	9%	5%	-5.1	-9	0.2
> O=c1ccnc(Sc2ncccc2[N+](=O)[O-])[nH]1
  -0.2%	4%	9%	1.6	11	1.3
> CCC(=O)Nc1cccc(NC(=O)CSc2nnc(C3CC3)n2C)c1
  0.7%	-2%	-8%	1.3	-4	-0.2
> CCOC(=O)Cc1csc(NC(=O)Nc2cccs2)n1
  nt	8%[15.4 µM]	-4%	-7.6	27	0.6
> Cc1ccc(C(=O)N/N=C/c2cc(C)n(-c3ccc(Br)cc3)c2C)cc1[N+](=O)[O-]
  -2.9%	-4%	-8%	-1.6	4	-1.1
> COc1ccc(Br)cc1CN(C)CC(=O)Nc1c(Cl)ccc(C)c1Cl
  -2.3%	5%[15.4 µM]	-11%	-1.9	28	2.2
> Cc1cccc2cc(CN(CCN3CCCC3)C(=O)NC3CCCCC3)c(=O)[nH]c12
  -19%	?	9%	-0.1	-6	-0.7
> CNC(=O)CN(c1ccc(C23CC4CC(CC(C4)C2)C3)cc1)S(C)(=O)=O
  nt	-8%[15.4 µM]	12%	0.2	-1	-0.3
> O=[N+]([O-])c1ccc(NCc2ccncc2)cc1
  nt	-19%[15.4 µM]	6%	0.5	5	-1.1
> O=[N+]([O-])c1c(O)c(Cl)cc(Cl)c1Cl (tested in a mixture with another compound)
  nt	7%	0%	nt	6	-0.2
> CCCCCCCNC(=O)CN1C(=O)CSc2ccc(S(=O)(=O)N3CCOCC3)cc21
  0.0%	-28%	-17%	nt	1	-1.2
> NS(=O)(=O)c1cccc(NC(=O)COC(=O)C2CCCCC2)c1
  nt	-28%	6%	-7.0	11	-0.6
